Tgondii IFNg = T. gondii growth inhibition with IFN-gamma, primary screen, cell-based; Toxoplasma gondii growth in IFN-gamma-treated host cells; stronger effect = lower value; reference of the scale not given here; activity change, negative = inhibition, %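 (about 20 µM by stock and volumes)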; hit rate 3.8% among 69,000; AID 1259416, 2018;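 active = below -70%; inconclusive = fit judged invalid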;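 also: host cells are HeLa cells infected with Toxoplasma gondii; parasite growth read as luciferase light; one replicate is shown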
* marks the source's active call; other numbers are inactive results; ? = inconclusive.

SMILES | Tgondii IFNg
Cc1cc(C)c(N=c2oc(C(C)(C)C)cs2)cc1C | 14
CC(C)N(Cc1cc2ccccc2o1)CC1CCC(=O)N1 (stereo not drawn) | 5
O=C(CC1COCCN1)NCCn1nc(-c2ccccc2)ccc1=O (stereo not drawn) | -14
CCS(=O)(=O)N1CCn2cc(CNC(=O)c3cccn3C)nc2C1 | 1
CCS(=O)(=O)N1CCC2O[C@@H](COCc3ccncc3)CCC21 (stereo partly drawn) | 18
Cc1nc(CN2C[C@@H](c3ccccc3)[C@@]3(CCN(C)C3=O)C2)cs1 | -1
CC(C)C(=O)NCc1csc(C2CCCN(C(=O)c3ccc(F)c(F)c3)C2)n1 (stereo not drawn) | 19
Cc1ccccc1-c1cc(N2CCN(C)CC2)ncc1N(C)C(=O)C(C)(C)c1cc(C(F)(F)F)cc(C(F)(F)F)c1 | -73*
O=c1[nH]nc(Cc2ccccc2)n1-c1ccc2c(c1)OCO2 | 3
COc1cccc(CNC(=O)[C@H]2[C@H](CO)[C@H]3Cn4c(cccc4=O)[C@@H]2N3C(=O)C2CCCC2)c1 | 12
O=C(O)c1cc(C2CC2)nc2ccc(-c3cccc4c3CCNC4)cc12 | 2
N#C[C@H]1[C@@H](c2ccc(C3=CCCCC3)cc2)[C@@H](CO)N1C(=O)Nc1ccccc1F | -22
CN(C)C(=O)N1C[C@@H](C(=O)N2CCCO2)C[C@@H]2OCC[C@@H]21 | 10
C/C=C/c1ccc([C@H]2[C@@H](CO)N(C(=O)c3ccccc3)C23CN(C(C)=O)C3)cc1 | -24
CCCCCCCc1ccc(NC(=O)Nc2ccccc2C(F)(F)F)cc1 | -37

Quoted at random: five records from the list, in no set order.
SMILES | Tgondii IFNg
Cc1ccccc1-c1cc(N2CCN(C)CC2)ncc1N(C)C(=O)C(C)(C)c1cc(C(F)(F)F)cc(C(F)(F)F)c1 | -73*
CCCCCCCc1ccc(NC(=O)Nc2ccccc2C(F)(F)F)cc1 | -37
CN(C)C(=O)N1C[C@@H](C(=O)N2CCCO2)C[C@@H]2OCC[C@@H]21 | 10
CCS(=O)(=O)N1CCC2O[C@@H](COCc3ccncc3)CCC21 (stereo partly drawn) | 18
N#C[C@H]1[C@@H](c2ccc(C3=CCCCC3)cc2)[C@@H](CO)N1C(=O)Nc1ccccc1F | -22

The list continues.
SMILES | Tgondii IFNg
Cc1ccsc1CNCCSc1nnnn1-c1ccccc1 | -38
Cc1ccccc1-c1nc(Cn2ccn3nc(-c4ccc(F)cc4)cc3c2=O)c(C)o1 | 50
COc1ccc(Br)cc1-c1nc(CSc2nc3c(=O)[nH]c(C)nc3n2C)c(C)o1 | 24
CCn1c(C)nc2cc(NC(=O)c3ccc(CN(C)C)cc3)ccc21 | -5
COCCN1CCOCC12CCN(Cc1ccn(C)n1)CC2 | 1
Cc1cc(OC(=O)c2nn(-c3ccccc3)nc2C)n(-c2ccccc2)n1 | 83
Cc1cnc2[nH]c(C(F)(F)F)c(CN(C)CCOc3ccccc3)c2c1 | -12
COc1ccc(-c2nc(C)c(-c3ccc(SCc4ccc(C(F)(F)F)cc4)nn3)s2)cc1 | -26
C[C@H]1COCc2cn(nn2)CCCC(=O)N1 | -12
COCCC(=O)N1CCN(CC2CC2)c2nc(C)ccc2C1 | -16
Cn1nc(C2CCCN(c3ncccc3C(N)=O)C2)n(-c2ccccc2)c1=O (stereo not drawn) | 1
Cn1cnc2cc(C(=O)Nc3cnc4n3CCCC4)cnc21 | 4
CC(C)c1cccc(NC(=O)C[C@H]2CC[C@H]3[C@@H](COc4ccc(NC(=O)NCc5ccccc5)cc4C(=O)N3C)O2)c1 | -52
O=C(Nc1ccc(-c2nc(-c3ccccc3)co2)cc1)Nc1cccc(Br)c1 | 19
C1=C(Cc2nc(C3CC3)n[nH]2)CCCC1 | -12
Cc1cc(OC(=O)c2cccnc2Oc2ccccc2)n(-c2ccccc2)n1 | 57
CCc1cnc(C)nc1-c1ccc(C(C)N2CCCC2)cc1 (stereo not drawn) | -1
CC(Nc1nc(-c2nnc(-c3ccccc3)o2)nc2ccccc12)c1ccccc1 (stereo not drawn) | -94*
COc1cc2c(c(OC)c1OC)-c1c(cc3c(c1OC)OCO3)C[C@H](C)[C@@H](C)C2 | -8
COc1ccc(S(=O)(=O)N2C[C@H](O)COC[C@@H]3O[C@@H](CC(=O)N[C@H]4CCN(Cc5ccccc5)C4)CC[C@H]32)cc1 | -11
CC(=O)N1CCC(C(=O)NCc2ccccc2)(N(CCC2=CCCCC2)C(=O)c2ccc(C)cc2)CC1 | -64
CCS(=O)(=O)N1CCC2(CC1)CC(CC(=O)NC1CC1)c1ccccc1O2 (stereo not drawn) | 1
CCCNC(=O)N1[C@H](CO)[C@@H](c2ccccc2)C12CN(C(=O)C1CCCCC1)C2 | -24
COc1cccc(C(=O)N2C[C@H]3[C@@H](c4ccccc42)[C@@H](CO)N3C(=O)c2cccc(F)c2)c1 | -4
CNC(=O)[C@@]12CCC3(CCN(C(=O)NCc4cccc(OC)c4)CC3)[C@H]1CN(C)C2 | 5
COc1ncc(CN2CCCC(CCc3ccccc3C(F)(F)F)C2)cn1 (stereo not drawn) | 2
CC(C)c1ocnc1-c1nc(CC2CCN(C)CC2)no1 | -7
C=CCn1c(=O)c(-c2nc(-c3ccc(C(=O)OC)cc3)no2)c(O)c2ccccc21 | 48
CC1Cc2ccccc2N1S(=O)(=O)c1cc2c3c(c1)CCC(=O)N3CCC2 (stereo not drawn) | 4
COc1ccc2c3c([nH]c2c1)[C@H](CO)NCC31CN(S(=O)(=O)c2cccs2)C1 | 68
COc1cncc(C(=O)Nc2cc(F)ccc2Cl)c1 | 80
Cc1ccc2nc(CN(C)C(=O)c3cc(C(C)C)nn3C)[nH]c2c1 | 12
COc1cccc(C=NC=Nc2cccc(OC)c2)c1 | 18
Cc1nc(C(F)(F)F)nc(-c2ccccc2CO)c1C | -2
Cc1ccc(-c2n[nH]c(C3CCN(CC(=O)NCc4ccccc4)CC3)n2)cc1 | -1
CC(C)C(NC(=O)c1nn(C)c2c1CCCC2)c1nnc2n1CCNCC2 (stereo not drawn) | -6
Cc1nn(CC(=O)N2CCCC2)c(=O)c2nc(-c3ccccc3)sc12 | 35
CN1CC2(CCCN(CCc3ccccn3)CC2)OC1=O (stereo not drawn) | 6
CCOc1ccccc1N1CCN(C(=O)c2csc(C(=O)NC3CC3)n2)CC1 | -21
CN(Cc1cc(C2CC2)on1)Cc1cc2n(n1)CCNC2 | -2
COc1ccc2[nH]c(=O)c(CN(C)CCc3scnc3C)cc2c1 | 6
COc1cccc(CNC2=NCCNC23CCN(S(=O)(=O)c2ccc(Cl)s2)CC3)c1 | -17
CCOCCCNC(=S)N1CCC(NC(=O)NC2CCCCC2)CC1 | 8
CCn1c(CC2CCNCC2)nn(CC2Cc3c(C)nc(C)nc3O2)c1=O (stereo not drawn) | -4
CCOC1C2CCC1N(C(=O)c1nn(C)c3ccccc13)CCO2 (stereo not drawn) | 0
Cc1cc(C)n(CC(C)C(=O)NC(Cc2cccs2)c2nccs2)n1 (stereo not drawn) | 70
O=C(c1ccccc1NCc1ccccn1)N1CCCN2CCC[C@H]2C1 | -29
CCC(=O)OCC(=O)C1(OC(=O)CC)[C@H](C)C[C@H]2C3[C@H](Cl)CC4=CC(=O)C=C[C@]4(C)[C@H]3[C@@H](O)C[C@@]21C (stereo partly drawn) | -3
COc1cc(C(=O)N2CCNCC2C(=O)NCc2ccccn2)ccn1 (stereo not drawn) | 2
O=C(CCNC(=O)c1ccccc1F)NCCc1cnc[nH]1 | 2
Cc1cccc(S(=O)(=O)N2CCn3nnc(COc4cccnc4)c3C2)c1 | -25
Cc1cccn2c(CC(=O)NCc3cn4c(n3)SCC4)cnc12 | -18
CO[C@H]1CC[C@H]2CCN(C)C(=O)CC3(CCCCC3)CN(C)C(=O)c3cccc(C#N)c3OC[C@H]1O2 | -15
O=c1n(CC2COCCO2)nc(C2CCNCC2)n1Cc1ccccc1 (stereo not drawn) | -3
COc1ccc(-c2nsc3c(SCc4ccccc4)ncnc23)cc1 | 12
COCC(=O)N1CC2(C1)[C@H](c1ccc(-c3cccc(F)c3)cc1)[C@@H](CO)N2C(=O)C1CC1 | -10
O=C(CC1CCc2ccccc21)N(CCO)Cc1nccs1 (stereo not drawn) | 2
N#CCOc1nc(N2CCOCC2)nc(N2CCOCC2)n1 | -13
CNC(=O)CC1C(=O)NCCN1C(=O)c1cc2ccccc2n1C (stereo not drawn) | -4
CNC(=O)C[C@@H]1CC[C@H]2[C@@H](COc3ccc(NC(=O)c4ccccc4F)cc3C(=O)N2C)O1 | 11

Additional structures follow:
SMILES | Tgondii IFNg
O=c1oc(-c2ccccc2)nc2c1C1(CCCC1)Cc1ccccc1-2 | -50
CCC1(CC)NC(=O)N(CC(=O)Nc2nnc(-c3cccc(C)c3)s2)C1=O | 12
CCOC(=O)NC(=S)N1C(C)CCCC1C (stereo not drawn) | -68
Cc1nc(C)n(CC(=O)NCCc2nc3ccccc3n2C)n1 | 70
Fc1cnc(N2CCOC3(CCN(c4ccccn4)CC3)C2)nc1 | -11
CCCC(=O)N1CC2(CCN(S(C)(=O)=O)CC2)c2c([nH]c3cc(OC)ccc23)[C@H]1CO | -16
C=C1SC(Nc2c(C)cccc2C)=NC12CCCCC2 | -81*
CCOC(=O)c1c(NC(=O)C2CCCN2S(=O)(=O)c2ccccc2)sc(C)c1C (stereo not drawn) | -54
Cc1ccc2[nH]cc(-c3ncccc3NC(=O)C(C)C)c2c1 | 7
Cc1cc(C)n(CC(C)NCc2ccc3c(c2)n(C)c(=O)n3C)n1 (stereo not drawn) | 2
CC(=O)N1CCC2(CC1)OC(=O)C(C)=C2C(=O)Nc1ccc(F)cc1F | 70
CCCS(=O)(=O)N1CC[C@H]2OCC[C@]2(c2nc(C)no2)C1 | -16
CCS(=O)(=O)Nc1ccc2c(c1)C(=O)N(C)C[C@H](OC)[C@H](C)CN(C(=O)c1ccc3c(c1)OCO3)[C@@H](C)CO2 | 88
CCC(=O)Nc1ccc2c(c1)C(=O)N(C)C[C@H](OC)[C@H](C)CN(C(=O)Cc1cccnc1)[C@H](C)CO2 | 72
O=C(CN1CCOCC1)N1[C@@H](CO)[C@@H]2c3ccccc3NC[C@@H]21 | -10

Continued; the last seven above are carried over.
SMILES | Tgondii IFNg
Cc1ccc2[nH]cc(-c3ncccc3NC(=O)C(C)C)c2c1 | 7
Cc1cc(C)n(CC(C)NCc2ccc3c(c2)n(C)c(=O)n3C)n1 (stereo not drawn) | 2
CC(=O)N1CCC2(CC1)OC(=O)C(C)=C2C(=O)Nc1ccc(F)cc1F | 70
CCCS(=O)(=O)N1CC[C@H]2OCC[C@]2(c2nc(C)no2)C1 | -16
CCS(=O)(=O)Nc1ccc2c(c1)C(=O)N(C)C[C@H](OC)[C@H](C)CN(C(=O)c1ccc3c(c1)OCO3)[C@@H](C)CO2 | 88
CCC(=O)Nc1ccc2c(c1)C(=O)N(C)C[C@H](OC)[C@H](C)CN(C(=O)Cc1cccnc1)[C@H](C)CO2 | 72
O=C(CN1CCOCC1)N1[C@@H](CO)[C@@H]2c3ccccc3NC[C@@H]21 | -10
C[C@@H]1CN([C@H](C)CO)S(=O)(=O)c2ccc(C#Cc3cccc(F)c3)cc2O[C@@H]1CN(C)S(=O)(=O)c1cn(C)cn1 | ?
Cc1cc(C)n(Cc2ccc(C(=O)N3CCCC(O)(CO)C3)cc2)n1 (stereo not drawn) | -1
CCO[C@@H]1CO[C@@]2(CCCN(C(=O)c3ccc4ncccc4c3)C2)C1 | -10
O=C(NC1CCCC1)[C@@H]1[C@@H](CO)[C@@H]2Cn3c(ccc(C4=CCCCC4)c3=O)[C@H]1N2CC1CC1 | 3
COc1cccc(CN2CCc3nc(SCc4nc(-c5ccc(C)cc5)oc4C)[nH]c(=O)c3C2)c1 | 2
CCCC(=O)N1CCC(N2CCN(c3nccc(NCC)n3)CC2)CC1 | -23
Cc1ccc(S(=O)(=O)N2CCC3(CCCN(CC4CCOCC4)C3)C2)cc1 (stereo not drawn) | 26
CCC(=O)c1cn(S(=O)(=O)c2ccc(C)cc2)c2ccccc12 | -101*
O=C(CCn1cnc2cc(-c3noc(Cc4c[nH]c5ccccc45)n3)ccc21)N1CCCC1 | 6
CN(C(=O)CC1C(=O)NCCN1Cc1ccoc1)C1CCOCC1 (stereo not drawn) | 12
Cc1ccc(CN2CCC3(CC2)CC(N2CCCC2)CO3)s1 (stereo not drawn) | -5
CCOC(=O)c1noc2nc(C)n(Cc3nc(-c4cccc(C)c4)oc3C)c(=O)c12 | -8
CCN1CCN(Cc2ccc(C(=O)N3CCC(N4CCCCC4)CC3)cc2)C(=O)C1=O | 28
COCCN1CC2(CCC1=O)CCN(Cc1cnc(C)[nH]1)CC2 | 6
CC(C)Nc1nc2cc(Cl)c(Cl)cc2n1[C@H]1O[C@@H](CO)[C@H](O)[C@@H]1O | -13
Cc1ccc(-c2coc(-c3ccc(NC(=O)Nc4ccccc4)cc3)n2)cc1 | 16
Cc1cc(C(=O)NCc2ccccc2-n2ccnc2C)nc(C)n1 | -4
Cn1cccc1CNCCCSc1ncccn1 | 27
COc1cc2c(cc1CN1CCC3(CCc4ccccc4C(=O)N3)C1)OCCO2 (stereo not drawn) | 156
Clc1ccc(N/N=C(\c2ccccc2)c2ccccn2)nc1 | -41
CNc1ncc(CN(C)C(=O)c2cccc(C#CC(C)(C)O)c2)cn1 | 23
CO[C@@H]1CCN(c2ncccn2)C[C@@H]1Cc1cccc(C)c1 | -23
CCC(=O)N1CC2(CCN(C(=O)Nc3c(C)noc3C)CC2)c2c([nH]c3cc(OC)ccc23)[C@H]1CO | -44
CCC(C(=O)OCCN(CC)CC)c1ccccc1 (stereo not drawn) | 35
O=C(Cn1c(=O)cc(C(=O)N2CCOCC2)c2ccccc21)Nc1cccc(F)c1 | 5
CN(C)S(=O)(=O)N1CCC2(CC1)CN(CC1CC1)Cc1ccccc12 | 27
Cc1ccc(-c2nnc(-c3nc(NCCc4cccs4)c4ccccc4n3)o2)cc1 | -12
O=S(=O)(Cc1ccc(Cl)cc1)CC(O)COc1ccc(F)cc1 (stereo not drawn) | 19
Cc1nc(OCC(=O)Nc2ccc(C)c(F)c2)c2ccccc2n1 | -3

A portion of the library, so the mix of outcomes need not match the whole.
